nsP2pro primary: Primary qHTS for inhibitors of NSP2Pro chikungunya virus (CHIKV) | FRET peptide cleavage, nsP2pro, fluorescence 1 h | Potency, µM (highest dose often 24.9 µM), without a hit: at the top dose activity change, negative = inhibition, usual class: inhibitors | Polyprotein P1234 (Chikungunya virus (strain S27-African prototype)), Q8JUX6 | 1.1% of 31,000 active; active means well fitted inhibition curve with a large enough effect; inconclusive means small, poorly fitted or top-dose-only effect; inactive means no such curve, though single readings can be large or run the other way; further: nearly all actives have a fitted effect of over 60% in size; a reference inhibitor and vehicle were the controls
Target sequence (Q8JUX6 whole entry, looked up): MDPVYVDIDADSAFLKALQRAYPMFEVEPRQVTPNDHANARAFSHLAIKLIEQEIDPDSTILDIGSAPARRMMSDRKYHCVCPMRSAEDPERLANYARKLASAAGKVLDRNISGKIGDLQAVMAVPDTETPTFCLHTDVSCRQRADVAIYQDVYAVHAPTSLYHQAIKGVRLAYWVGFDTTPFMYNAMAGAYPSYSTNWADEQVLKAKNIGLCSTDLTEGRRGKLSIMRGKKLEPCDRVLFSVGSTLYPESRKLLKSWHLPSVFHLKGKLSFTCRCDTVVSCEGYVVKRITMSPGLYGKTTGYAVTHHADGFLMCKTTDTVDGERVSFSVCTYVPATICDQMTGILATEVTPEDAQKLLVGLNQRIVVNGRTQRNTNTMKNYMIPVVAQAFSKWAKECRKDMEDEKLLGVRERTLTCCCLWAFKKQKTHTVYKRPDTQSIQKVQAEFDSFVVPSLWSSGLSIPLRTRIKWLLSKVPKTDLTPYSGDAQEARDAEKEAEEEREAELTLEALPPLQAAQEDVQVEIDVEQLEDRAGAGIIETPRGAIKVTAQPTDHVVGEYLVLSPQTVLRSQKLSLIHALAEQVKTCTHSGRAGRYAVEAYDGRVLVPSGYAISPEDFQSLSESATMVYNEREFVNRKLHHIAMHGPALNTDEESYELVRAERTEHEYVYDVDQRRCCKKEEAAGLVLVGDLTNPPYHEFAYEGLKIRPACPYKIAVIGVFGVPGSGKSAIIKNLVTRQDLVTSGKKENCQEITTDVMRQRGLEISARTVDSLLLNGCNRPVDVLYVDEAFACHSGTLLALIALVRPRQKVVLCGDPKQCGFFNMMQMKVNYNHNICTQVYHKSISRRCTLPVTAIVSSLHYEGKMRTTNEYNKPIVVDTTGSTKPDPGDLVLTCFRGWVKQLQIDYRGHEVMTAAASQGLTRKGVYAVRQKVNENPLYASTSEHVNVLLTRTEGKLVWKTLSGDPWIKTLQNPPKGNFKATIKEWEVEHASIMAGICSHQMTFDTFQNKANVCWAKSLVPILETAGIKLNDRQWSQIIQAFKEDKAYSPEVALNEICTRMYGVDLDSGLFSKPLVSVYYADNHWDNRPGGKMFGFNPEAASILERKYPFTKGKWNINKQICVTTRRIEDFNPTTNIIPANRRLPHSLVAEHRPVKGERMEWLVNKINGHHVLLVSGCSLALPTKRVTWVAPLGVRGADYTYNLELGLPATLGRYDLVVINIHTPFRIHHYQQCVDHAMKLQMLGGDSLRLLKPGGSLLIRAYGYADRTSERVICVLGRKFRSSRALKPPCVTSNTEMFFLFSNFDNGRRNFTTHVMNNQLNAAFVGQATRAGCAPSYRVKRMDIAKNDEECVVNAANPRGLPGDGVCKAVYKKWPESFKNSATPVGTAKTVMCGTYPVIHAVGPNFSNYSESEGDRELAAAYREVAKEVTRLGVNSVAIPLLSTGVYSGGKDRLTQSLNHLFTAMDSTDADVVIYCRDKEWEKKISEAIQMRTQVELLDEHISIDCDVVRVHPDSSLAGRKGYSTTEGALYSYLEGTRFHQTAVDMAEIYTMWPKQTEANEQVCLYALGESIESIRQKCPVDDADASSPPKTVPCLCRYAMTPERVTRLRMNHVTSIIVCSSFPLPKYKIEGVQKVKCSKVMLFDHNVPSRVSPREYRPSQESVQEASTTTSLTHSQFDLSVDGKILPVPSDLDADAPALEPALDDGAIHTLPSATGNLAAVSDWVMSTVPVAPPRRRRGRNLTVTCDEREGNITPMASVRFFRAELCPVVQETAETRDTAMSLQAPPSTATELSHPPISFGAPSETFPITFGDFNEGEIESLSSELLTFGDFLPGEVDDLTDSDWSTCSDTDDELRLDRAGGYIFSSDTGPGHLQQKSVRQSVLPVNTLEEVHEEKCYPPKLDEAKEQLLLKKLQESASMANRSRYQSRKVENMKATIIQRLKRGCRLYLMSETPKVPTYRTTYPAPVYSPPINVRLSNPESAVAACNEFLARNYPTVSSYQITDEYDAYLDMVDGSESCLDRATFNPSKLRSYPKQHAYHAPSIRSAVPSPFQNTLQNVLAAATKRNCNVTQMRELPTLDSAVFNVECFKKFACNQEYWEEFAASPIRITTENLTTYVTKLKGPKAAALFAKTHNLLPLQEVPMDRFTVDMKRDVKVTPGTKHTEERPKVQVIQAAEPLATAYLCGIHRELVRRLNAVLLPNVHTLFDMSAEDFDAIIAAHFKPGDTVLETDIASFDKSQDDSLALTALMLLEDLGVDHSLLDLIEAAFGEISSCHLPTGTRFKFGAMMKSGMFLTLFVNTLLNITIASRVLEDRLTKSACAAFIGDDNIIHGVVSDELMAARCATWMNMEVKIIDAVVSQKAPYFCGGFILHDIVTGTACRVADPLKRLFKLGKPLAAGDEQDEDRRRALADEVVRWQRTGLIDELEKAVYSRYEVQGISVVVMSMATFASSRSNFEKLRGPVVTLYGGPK
The depositor's hits bear a star; i = inactive; u = inconclusive; & = joins results of further samples; [ ] = another dose, or the depositor's remark. On the % scale 0 is the no-effect control and ±100 the full control effect; potency means the concentration at half of the fitted maximal effect. An excerpt. The share of hits here may be higher or lower than overall.

No.	structure	nsP2pro primary
1	CCn1c(SCc2ccccc2Cl)nc(=O)c2c(C(=O)OC)cc(C3CC3)nc21	-6%
2	CC1(COc2ccc(N3CCC(Oc4ccc(OC(F)(F)F)cc4)CC3)cc2)Cn2cc([N+](=O)[O-])nc2O1 (configuration not stated)	-6%
3	CCN(CC)C(=O)c1ccc(NC(=O)Cn2nc(-c3ccc(C)cc3)c3ccccc3c2=O)cc1	-6%
4	CCCc1[nH]nc2c1C(c1cc(Cl)cc(Cl)c1O)C(C#N)=C(N)O2 (configuration not stated)	13%
5	NCCC(=O)N1CCC2(CC1)CN(C(=O)Cc1ccc(Cl)cc1)CCO2	-15%
6	Cc1cccc(C(=O)N2CCCC(c3nnnn3-c3ccccc3)C2)c1 (configuration not stated)	i
7	O=C(Nc1ccccc1Cl)N1CCC(n2cc(C3CCCC3)nn2)CC1	0%
8	COc1cc(CNC(=O)CCCC/C=C\C(C)C)ccc1O	u
9	Cc1ccc(Cl)cc1N1CCN(C(=O)CCCn2c(=O)[nH]c3ccc(Br)cc3c2=O)CC1	-14%
10	c1ccc(CO[C@H]2COCCN(c3nc4ccccc4o3)C2)cc1	-6%[39.2 µM]
11	COc1ccc(OC)c(NC(=O)CCNC(=O)Cn2cnc3ccccc3c2=O)c1	-20%
12	CN(C)CCO[C@H]1C[C@@H](O)C12CCN(C(=O)Cc1ccc3ccccc3c1)CC2	i
13	Cc1cc(C)nc(NC(=S)N2CCN(c3cc(Cl)c(Cl)cc3Cl)CC2)c1	1%
14	COc1cccc(N2CCN(S(=O)(=O)c3cc(-c4cc(C)no4)ccc3C)CC2)c1	-14%
15	CCC(CN)CC(C)CNCC(O)CNCC(CC)CC(CC)CN (configuration not stated)	-5%
16	C=C1c2c(Cl)ccc(O)c2C(O)=C2C(=O)[C@@]3(O)C(O)=C(C(N)=O)C(=O)[C@@H](N(C)C)[C@@H]3[C@@H](O)[C@H]12	69%[activator]
17	CN(C)C(=O)N1CCCC(C(=O)NCCc2nc(-c3ccccn3)no2)C1 (configuration not stated)	i
18	Cc1ccc2nc(-c3ccc(NC(=O)Cc4ccccc4)cc3)sc2c1	-8%
19	COc1cccc(CN2CCCC3(CNc4ccccc4[S+](=O)([O-])N3)C2)c1 (configuration not stated)	-6%
20	Cc1csc(CNc2ncnc3ccc(-c4ccc(C(C)O)o4)cc23)n1 (configuration not stated)	u
21	CCOCCn1c(=O)n(C(CC)C(=O)NC(C)(C)C)c2cc(C(=O)O)cnc21 (configuration not stated)	0%
22	CC(C)(C)c1ccc(C(=O)Nc2ccc(-c3nc4ccccc4[nH]3)cc2)cc1	2%
23	CN(C)C(=S)SC(=S)N(C)C	8.8µM*
24	Cc1ccc(OCCn2c(CCNC(=O)c3ccc(Br)cc3)nc3ccccc32)cc1	i
25	O=S(=O)(c1ccccc1)N1CCN(c2nc(-c3ccc(Br)cc3)cs2)CC1	i

Gathered by group, the entries above containing bromine (3)
No.	structure	nsP2pro primary
9	Cc1ccc(Cl)cc1N1CCN(C(=O)CCCn2c(=O)[nH]c3ccc(Br)cc3c2=O)CC1	-14%
24	Cc1ccc(OCCn2c(CCNC(=O)c3ccc(Br)cc3)nc3ccccc32)cc1	i
25	O=S(=O)(c1ccccc1)N1CCN(c2nc(-c3ccc(Br)cc3)cs2)CC1	i

Additional results:
No.	structure	nsP2pro primary
26	O=C(C1CCN(S(=O)(=O)c2ccc(Br)s2)CC1)N1CCN(c2cccc(C(F)(F)F)c2)CC1	-7%
27	O=C(Cn1nnc(-c2cccc(C(F)(F)F)c2)n1)NCc1ccc(F)cc1	-8%
28	Cc1cc(S(=O)(=O)Nc2cccc(C(=O)O)c2)c(C)c(S(=O)(=O)c2ccccc2)c1	-20%
29	O=C(Nc1ccc(C(=O)OCc2cc(=O)n3c4c(sc3n2)CCCC4)cc1)c1ccccc1	-18%
30	O=C(Cn1c(=O)nc(-c2ccccc2F)c2cc(Cl)ccc21)N1CCN(c2ccccc2F)CC1	-22%
31	CC(C)C(=O)N1CCN(CCn2nc3n(c2=O)CCCC3)CC1	-22%[39.2 µM]
32	CC1=CC(=O)[C@@H](O)[C@]2(C)C3[C@@H](O)[C@@H]4OC(=O)[C@@H]([C@H]4C)[C@]3(C)C(=O)C[C@@H]12 (some centres not stated)	9%
33	CCC(C)C(=O)O[C@H]1C[C@](C)(O)[C@]23OC(C)(C)[C@H](C[C@H](OC(=O)c4ccccc4)[C@]2(COC(C)=O)[C@H]1OC(=O)C(C)CC)[C@H]3OC(C)=O (some centres not stated)	-13%[10 µM]
34	Cn1cc(-c2c[nH]c3ncnc(N4CCOCC4)c23)cn1	9%
35	CN1CCc2[nH]cnc2C12CCN(C(=O)Cc1ccc(F)cc1Cl)CC2	-3%
36	CC(=O)Nc1ccc(NC(=O)c2nc(SCc3ccccc3C)ncc2Cl)cc1	14%
37	Cc1cc(CNS(=O)(=O)c2ccc3c(c2)CCN(C(=O)C(O)C(C)C)C3)no1 (configuration not stated)	-6%
38	COc1ccc(CN(C(=O)COc2ccccc2OC)C2CCS(=O)(=O)C2)cc1 (configuration not stated)	-19%
39	O=C1COC2(CCN(S(=O)(=O)c3ccc(-c4ccc5cccnc5c4)cc3)CC2)CN1C1CC1	30%
40	CCCN1CC2(CCN(C)CC2)CC1C(=O)N(C)Cc1ccn[nH]1 (configuration not stated)	u
41	CCC(C)NC(=O)N1CC(c2nc(CCOCC3CCOCC3)no2)C1 (configuration not stated)	4%
42	Cc1ccc(Cn2c(=O)n(Cc3ccco3)c(=O)c3sc4ccccc4c32)cc1	-29%
43	COc1ccc(N(C)S(=O)(=O)c2ccc3c(c2)CCN3C(=O)CCC(=O)O)cc1	-20%
44	COc1ccc(NC(=O)c2cc(S(=O)(=O)N3CCCC3)ccc2OC)cc1	-13%
45	O=C(CC[C@@H]1CNC(=O)[C@@H]2C[C@H](NCc3ccccn3)CN12)NCc1ccccc1	i
46	CC[C@@]1(O)CCN(C(=O)c2cccc(CCC(C)(C)O)c2)C[C@H]1O	-7%
47	COC(=O)[C@H](O)[C@H]1C(C)(C)[C@H](OC(C)=O)[C@@]2(O)C(=O)[C@]1(C)C1CC[C@]3(C)C(CC(=O)O[C@H]3c3ccoc3)[C@]13O[C@@H]32 (some centres not stated)	u
48	COCC1CN(C2CCC2)CC12CCN(Cc1ccncc1)CC2 (configuration not stated)	i
49	Cc1cccc(N(CC(N)=O)C2SC(=O)N(Cc3cccc(C(=O)O)c3)C2=O)c1 (configuration not stated)	u
50	CCN(CC)c1ccc(NC(=O)C(Cc2ccccc2)NS(=O)(=O)c2ccc(Br)s2)c(C)c1 (configuration not stated)	-1%
51	C#C[C@]1(O)CC[C@H]2[C@@H]3CCc4cc(OC)ccc4[C@H]3CC[C@@]21C	-6%
52	COc1ccc(NC(=O)N2CCOC(c3ccc(Cl)cc3)C2)c(C)c1 (configuration not stated)	-3%
53	N#CN1CCC(NC(=O)c2ccc(F)cc2)CC1	-7%
54	Cc1ccsc1C(=O)N1CCCC(CN2CCCC2)CC1 (configuration not stated)	5%
55	Cc1noc(C)c1N[S+](=O)([O-])c1ccc(NC(=O)Cc2ccc(Cl)c(Cl)c2)cc1	3%
56	CC(=O)Nc1cccc2c1c(Sc1ccc(Cl)cc1)c(C)n2CC(=O)O	9.9µM*
57	COc1ccc(-n2ncc(C(=O)N3CCN(Cc4ccccc4)CC3)c2C2CCN(C(=O)OC(C)(C)C)CC2)cc1	-5%
58	CCCn1c(-c2ccc(F)cc2)nc2c(NC3CCN(Cc4ccccc4)CC3)nc(C)nc21	-1%
59	CCOc1ccc(CCNC(=O)CN(C)C)cc1OCC	i
60	Cc1ccc(NC(=O)/C(C#N)=C\c2ccc(-c3ccc(Cl)cc3)o2)c(C)c1	-18%
61	COC(=O)C1=CO[C@@H](O[C@@H]2O[C@H](CO)[C@@H](O)[C@H](O)[C@H]2O)/C(=C\CO)[C@@H]1CC(=O)OCCc1ccc(O)cc1	-1%[10 µM]
62	Cc1ccc(NC(=O)Cn2cc(C(=O)C3CCCCC3)c3ccccc32)cc1	-5%
63	COc1nc2nc(CCc3ccccc3)n(C)c2cc1-c1cncnc1	2%[39.2 µM]
64	CCCCN1CCCc2cc(CN(CCCN3CCOCC3)C(=O)Nc3ccc(OCC)cc3)ccc21	21%
65	Cc1csc(CNc2ncnc3ccc(-c4ccc5c(c4)OCO5)cc23)n1	i
66	COc1ccc2c(c1)c(CN1CCOCCNC(=O)CC1)cn2C	-19%
67	Cc1nc(C)c(-c2ccc3ncnc(N(C)Cc4sccc4C)c3c2)s1	4%
68	CCCCCn1c(=O)[nH]c2cc(C(=O)N3CCN(c4cccc(OC)c4)CC3)ccc2c1=O	-19%
69	CCOC(=O)C1=C(CN2CCN(c3ccc(C)cc3C)CC2)NC(=O)NC1c1ccc(OC)cc1 (configuration not stated)	-12%
70	NS(=O)(=O)c1ccc(N=Nc2c(O)[nH]c3ccc(Br)cc23)cc1	1%
71	O=C(C1CCCO1)N1CCN(c2nc(-c3cccnc3)nc3c2CNC3)CC1 (configuration not stated)	1%
72	COC(=O)c1c(NC(=O)COC(=O)c2ccc(Cl)cc2[N+](=O)[O-])sc2c1CCCCC2	0%
73	C=C1CC2(C(=O)O)CC1CCC2C1(C)CCCC2(C)C(=O)OC(O)C21 (configuration not stated)	-12%
74	CCOCC(=O)N[C@@H]1CN(Cc2ccccc2)C[C@H]1CN(C)C	-7%
75	Cc1ccc(N(C)C(=O)c2noc3c2CCCCC3)cc1C	-17%

Rewritten field by field: two of the compounds above
64: CCCCN1CCCc2cc(CN(CCCN3CCOCC3)C(=O)Nc3ccc(OCC)cc3)ccc21
  nsP2pro primary: 21%

54: Cc1ccsc1C(=O)N1CCCC(CN2CCCC2)CC1 (configuration not stated)
  nsP2pro primary: 5%

The results go on:
No.	structure	nsP2pro primary
76	CCOc1cc(C2c3c(oc4ccc(F)cc4c3=O)C(=O)N2Cc2ccco2)ccc1O (configuration not stated)	-17%
77	CC(=O)c1ccc(N2CCN(C(=O)CCCn3c(=O)[nH]c4ccsc4c3=O)CC2)cc1	-17%
78	O=C(NC1CC(c2nnc(CO)n2C2CC2)C1)c1ccc2c(c1)CCO2 (configuration not stated)	2%
79	COCCN(CCOC)CC[C@@H]1CC[C@H](O)[C@@H](C(=O)NC2CCCCC2)O1	4%[39.2 µM]
80	Cn1nc(-c2ccc3ccccc3c2)cc1[C@H]1CN2CC[C@H]1C[C@@H]2CNC(=O)c1ccco1	4%
81	FC(F)(F)c1cccc(Nc2ccc(CNc3nc(-c4ccccc4C(F)(F)F)nc4ccccc34)cc2)c1	-11%
82	COC(=O)CC[C@@H](C)[C@H]1CC[C@H]2[C@@H]3CC(=O)[C@H]4C[C@H](OC(C)=O)CC[C@]4(C)[C@H]3CC[C@]12C	u
83	O=C(C1CC1)N1CCN2C(=O)N(C3CCCCC3)C[C@H]2C1	-9%[39.2 µM]
84	O=C(Cc1cccc([N+](=O)[O-])c1)NCc1nc2cccnc2n1Cc1ccc(F)cc1	-8%
85	CC(=O)NCCNc1nc2c(-c3cccc(C)c3)nnn2c2ccc(Cl)cc12	-19%
86	O=C(Cn1nc(C2CC2)ccc1=O)NCCc1ccccc1	-6%
87	CCOc1cc(=O)n2c(c1C(=O)NC1CCCC1)CCCCC2	i
88	Cn1cc(S(=O)(=O)c2ccccc2)c(=O)c2cc(F)c(N3CCCCC3)cc21	-23%
89	COc1ccc(CC2C(=O)NC(C)C(=O)N(C)C3Cc4ccc(cc4)Oc4cc(ccc4OC4OC(CO)C(O)C(O)C4O)CC(C(=O)NC(C)C(=O)NC(C)C(=O)N2C)N(C)C3=O)cc1 (configuration not stated)	25%[5.1 µM]
90	O=S1(=O)N=C(Sc2cccc3cccnc23)c2ccccc21	u
91	O=S(=O)(c1cccc(Br)c1)N1CCN(S(=O)(=O)c2ccc3c(c2)OCCO3)CC1	-8%
92	CCc1nnc(NC(=O)CSc2nccn2-c2ccc(OC)cc2)s1	-18%
93	CN(C(=O)c1ccc(F)cc1C(F)(F)F)C1CCN(c2nnc(-c3ccnn3C)c3ccccc23)CC1	-10%
94	CC[C@H](C)/C=C(C)/C=C/C(=O)Cc1cc(O)c(C)c(O)c1C=O	u
95	Cn1cc(CN2C[C@@H]3C[C@H](C2)c2ccc(NC(=O)COc4ccccc4)c(=O)n2C3)c2ccccc21	-25%
96	Cc1nc(CC(=O)N2CCCC(c3ccc(C(=O)O)cc3)C2)cs1 (configuration not stated)	2%
97	CCOc1ccc(Nc2ncnc3c2nc2n3CCCCC2)cc1	1%
98	O=C(O)c1ccc2c(c1)C(=O)N([C@@H](Cc1ccc(O)cc1)C(=O)O)C2=O	i
99	CCNC(=O)CCC/C=C\C[C@@H]1[C@@H](/C=C/[C@@H](O)CCc2ccccc2)[C@H](O)C[C@@H]1O	-13%&7%
100	Cc1ccn2c(Nc3ccc4c(c3)OCCO4)c(-c3ccc(C)o3)nc2c1	4%
101	Cc1coc2c(C)c3oc(=O)c(CCC(=O)N4CCCCC4)c(C)c3cc12	-10%
102	O=C(Nc1ccc2ncnc(N3CCCCC3)c2c1)c1cc(F)ccc1F	i
103	Fc1ccc(CN2CCn3c(nnc3-c3ccncc3)C2)cc1	-5%
104	Clc1cccc(N2CCN(c3nc4ccccc4n4nnnc34)CC2)c1	-6%
105	O=C(CCCCCn1c(=O)c2sccc2n(CC(=O)Nc2cc(C(F)(F)F)ccc2Cl)c1=O)NCc1ccccc1Cl	-15%
106	CCCS(=O)(=O)Nc1ccc(=O)n2c1[C@@H]1C[C@@H](CN(C(=O)Nc3ccc(OC)cc3)C1)C2	u
107	CN1CC(=O)N(CC(=O)Nc2ccc(OC(F)(F)F)cc2)c2ccccc2C1=O	-12%

From PubChem BioAssay
